Source: PubChem (National Center for Advancing Translational Sciences (NCATS))
A488 fluor = qHTS Assay for Spectroscopic Profiling in A488 Spectral Region; compound autofluorescence, A488 spectral region, dye equivalency; stronger effect = higher value; max dye equivalency, M; 59,000 tested, 0.1% active; AID 591, 2007; active = above 10 nM dye equivalent; inconclusive = 1 to 10 nM; inactive = 1 nM or less; about half of its hits are not listed in these tables;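 further: highest value over a series up to 38 µM; compound alone in buffer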
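Compounds pin-transferred into 100 mM Tris buffer, pH 8.0, incubated 15 min at room temperature, then imaged with 480 nm excitation/540 nm emission filters. Fluorescence converted to Alexa 488 dye-equivalent concentration via an on-plate six-point A488 standard curve.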
A647 autofl = qHTS Assay for Spectroscopic Profiling in A647 Spectral Region | max dye-equivalent concentration, M | Compound fluorescence, A647 channel (570/671 nm), Tris buffer | 59,000 tested, under 10 active; active means above 1 µM dye equivalent; inconclusive means 0.1 to 1 µM; inactive means 0.1 µM or less;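 further: values scaled relative to a standard on each plate; highest value over a series up to 38 µM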
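Buffer was dispensed, compounds and Alexa 647 standards were pin-transferred, and plates sat 15 min at room temperature. Intensity at 570/671 nm was then converted to dye-equivalent concentration using the plate's A647 standard curve.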
AID923 = qHTS Assay for Allosteric/Competitive Inhibitors of Caspase-1: Spectroscopic Profiling in AFC Spectral Region; compound fluorescence, AFC spectral region (405/520 nm); almost no hit is shown here; Potency, µM (top dose mostly 57.5 µM), without a hit: at the highest dose fluorescence increase, actives largely listed as activators; 75,000 tested, 1.1% active; active means well fitted activation curve with a large enough effect; inconclusive means small, poorly fitted or top-dose-only effect;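 further: potency means the concentration at half of the fitted maximal effect; 0% is about no effect; scaled to a free AFC standard on each plate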
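Baseline compound fluorescence (AFC region, 405 nm ex/520 nm em) taken from the intercept of kinetic reads with 50 nM caspase-1 and 5 uM Ac-WEHD-AFC; normalized to an on-plate AFC standard curve; compounds titrated up to 57 uM.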
TSHR agonist = qHTS Assay for Agonists of the Thyroid Stimulating Hormone Receptor | Thyrotropin receptor (Homo sapiens), P16473 | HEK293-CNG-TSHR cells (CNG channel as cAMP sensor), membrane potential dye, cAMP | Potency, µM (top dose mostly 57.1 µM), for the others: top-dose activation, usual class: activators | 73,000 tested, 0.48% active | AID 926, 2007; active = well fitted activation curve of enough size with the parental cells flat; inconclusive = any curve in the parental cells; inactive = parental cells flat and receptor cells flat or falling; further: potency means the concentration at half of the fitted maximal effect; % of control where 0% means no effect; weak receptor curves with flat parental cells got no call and are not listed
Target sequence (P16473 whole entry, looked up): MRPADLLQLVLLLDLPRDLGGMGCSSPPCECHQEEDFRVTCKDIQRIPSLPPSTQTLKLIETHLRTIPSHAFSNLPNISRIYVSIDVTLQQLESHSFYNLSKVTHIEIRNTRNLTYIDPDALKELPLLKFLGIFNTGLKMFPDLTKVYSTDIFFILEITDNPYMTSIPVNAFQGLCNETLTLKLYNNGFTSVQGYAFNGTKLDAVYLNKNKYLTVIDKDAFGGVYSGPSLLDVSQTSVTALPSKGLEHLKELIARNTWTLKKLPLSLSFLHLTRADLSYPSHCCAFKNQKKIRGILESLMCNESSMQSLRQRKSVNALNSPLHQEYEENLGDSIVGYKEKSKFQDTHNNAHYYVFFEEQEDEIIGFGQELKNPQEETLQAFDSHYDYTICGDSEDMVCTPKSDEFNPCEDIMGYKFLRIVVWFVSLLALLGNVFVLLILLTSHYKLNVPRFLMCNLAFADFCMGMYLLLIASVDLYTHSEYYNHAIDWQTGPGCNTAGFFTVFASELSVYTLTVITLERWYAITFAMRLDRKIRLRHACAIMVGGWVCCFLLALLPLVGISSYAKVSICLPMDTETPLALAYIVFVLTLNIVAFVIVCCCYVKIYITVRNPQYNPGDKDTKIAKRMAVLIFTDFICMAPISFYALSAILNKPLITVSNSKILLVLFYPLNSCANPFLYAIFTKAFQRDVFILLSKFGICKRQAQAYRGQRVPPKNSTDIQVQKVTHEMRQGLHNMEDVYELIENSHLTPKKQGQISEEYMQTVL
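HEK 293 cells stably expressing TSHR and a modified CNG channel, with CNG-only parental cells as counterscreen, were preloaded 60 min at room temperature with membrane potential dye containing 100 uM RO 20-1724. Compound exposure was 30 min, and depolarization was read as fluorescence at 590 nm.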
Resorufin autofl = qHTS Assay for Spectroscopic Profiling in Resorufin Spectral Region; Compound fluorescence, resorufin region 547/598 nm, buffer; stronger effect = higher value; max dye-equivalent concentration, M; 59,000 tested, 0.04% active; AID 588, 2007; active = above 10 nM dye equivalent; inconclusive = 1 to 10 nM; inactive = 1 nM or less; a few of its hits are not listed in these tables; further: highest value over a series up to 38 µM
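Compounds in 100 mM Tris buffer, pH 8.0, incubated 15 min at room temperature, then read with 547 nm excitation and 598 nm emission filters. Fluorescence was converted to dye-equivalent concentration using an on-plate six-point resorufin standard curve.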
The depositor's hits bear a star; i = inactive; u = inconclusive; x = not tested or not shown; & = joins results of further samples; [ ] = another dose, or the depositor's remark.

Screens in order – A488 fluor | A647 autofl | AID923 | TSHR agonist | Resorufin autofl
- O=C(Nc1cccc(Cl)c1)c1c(O)c2c(n(Cc3ccco3)c1=O)CCCC2
 : i | 3.3e-09 | 1.0% | 2.5% | i
- Cc1ccc(CN2CCN(CC(=O)N3CCC4(CC3)OCCO4)C2=O)cc1
 : i | 4.7e-09 | -0.6% | x | i
- O=c1cccc2n1CC1CC2CN(Cc2c(F)cccc2Cl)C1 (centres undefined)
 : x | x | -1.4% | 29.5% | x
- O=C(NCc1ccco1)C(c1ccco1)N(C(=O)Cn1nnc2ccccc21)c1ccc2c(c1)CCC2 (centres undefined)
 : i | 1e-09 | -0.1% | u | i
- CCCCP(=O)(O)CCC(=O)O
 : i | 4.14e-08 | -0.6% | 5.6% | i
- CN(C)CCCc1c[nH]c2ccccc12
 : i | 2.04e-08 | -0.2%[11.5 µM] | 2.4%[11.4 µM] | i
- CCC(=Nc1ccc(OC)cc1OC)c1c(O)[nH]c(=O)[nH]c1=O
 : i | 1e-09 | 0.4% | 7.1%[11.4 µM] | i
- N[C@H](Cn1ccc(=O)[nH]c1=O)C(=O)O
 : i | 3.09e-08 | -0.4% | u | i
- Cc1cc(C)n(CCOC(=O)C2C(C=C(Cl)Cl)C2(C)C)n1 (centres undefined)
 : i | 1e-09 | -0.9% | u | i
- CCC(=NCCCN(CC)CC)c1c(O)n(C2CCCCC2)c(=O)[nH]c1=O
 : i | 3.2e-08 | -2.3% | 5.4% | i
- CCCCCCN=C(C)c1c(O)n(CCCC)c(=O)[nH]c1=O
 : i | 1.11e-08 | 0.8% | u | i
- O=C(COc1ccccc1)N1CCN(C2CCCC2)CC1
 : i | 1.38e-08 | 0.5% | 0.4% | i
- O=C(c1ccccc1)c1cn(CC(=O)N2CCCC2)c2ccccc12
 : x | x | 2.5% | 4.5% | x
- C=CCn1c(O)c(C(C)=NCc2cccnc2)c(=O)[nH]c1=O
 : i | 3.22e-08 | -1.1% | 5.9% | i
- C[C@H](N)Cc1c[nH]c2ccc(OCc3cccs3)cc12
 : i | 2.75e-08 | -1.2%&-2.3% | -11.0%&3.0% | i
- C=CCN1CC[C@@]23c4c5ccc(O)c4O[C@H]2/C(=N\N=C2/CC[C@@]4(O)[C@H]6Cc7ccc(O)c8c7[C@@]4(CCN6CC=C)[C@@H]2O8)CC[C@]3(O)[C@@H]1C5
 : i | 1.9e-09 | -2.1%&0.3% | u | i
- Brc1ccccc1Cn1c(-c2cncs2)nc2ccccc21
 : x | x | 1.2% | u | x
- CN1CCN(c2ccc(NC(=O)C(C)(C)C)cc2)CC1
 : i | 1e-09 | -0.1% | -3.8% | i
- Nc1ccc(Oc2ccc(N)cc2)cc1
 : x | x | -0.9% | u | x
- O=C(O)c1ccccc1Nc1cccc(C(F)(F)F)c1
 : i | 5.5e-09&1e-09 | -6.7% | u | i
- COc1ccc(OCC(=O)N2CCN(CC3CC4C=CC3C4)CC2)cc1 (centres undefined)
 : i | 5.36e-08 | -0.5% | 1.7% | i
- O=c1[nH]c(=O)n(C2CCCCCC2)c(O)c1C=NC1CCN(Cc2ccccc2)CC1
 : i | 5e-09 | -1.3% | 18.5% | i
- COc1ccc2nc(NC(=O)CCc3nc(C4=CCN(C)CC4)no3)sc2c1
 : x | x | 0.7% | 2.4% | x
- COP(=S)(OC)SCN1C(=O)c2ccccc2C1=O
 : x | x | -1.3% | -13.7% | x
- CC1(C)Cc2c(sc3c2C(=O)NC(c2cccnc2)N3)CO1 (centres undefined)
 : x | x | 3.4% | u | x
- COc1ccccc1N1CCN(Cc2cccc(OC)c2O)CC1
 : i | 1.7e-09 | 0.3% | 4.2% | i
- CCOC(=O)C1CCN(C(C)C(=O)c2c(C)[nH]c3cc(C)ccc23)CC1 (centres undefined)
 : i | 1e-09 | 0.8% | u | i
- O=P(C(c1ccc2c(c1)OCO2)N1CCOCC1)(N1CCOCC1)N1CCOCC1 (centres undefined)
 : i | 1e-09 | -0.1% | -0.1%[11.4 µM] | i
- CC1(C)C(C(=O)NCc2ccco2)C1(C)C
 : i | 3.4e-09 | -0.5% | 9.1% | i
- C=C(Cl)CCl
 : x | x | 0.8% | 6.6% | x

Single records (already shown):
Entry for Nc1ccc(Oc2ccc(N)cc2)cc1 = A488 fluor = x; A647 autofl = x; AID923 = -0.9%; TSHR agonist = u; Resorufin autofl = x
Entry for CN1CCN(c2ccc(NC(=O)C(C)(C)C)cc2)CC1 = A488 fluor = i; A647 autofl = 1e-09; AID923 = -0.1%; TSHR agonist = -3.8%; Resorufin autofl = i

Other entries.
Screens in order – A488 fluor | A647 autofl | AID923 | TSHR agonist | Resorufin autofl
- O=C(CCC(=O)N1CCC2(CC1)OCCO2)Nc1nnc(C(F)(F)F)s1
 : i | 2.59e-08 | -0.2% | u | i
- Cc1nonc1-c1nc(-c2nonc2N)n[nH]1
 : i | 1e-09 | 0.2% | 2.0% | i
- NC[C@H](CS(=O)(=O)O)c1ccc(Cl)cc1
 : x | x | 1.5% | -4.3% | x
- C[C@]12CCC(=O)C=C1CC[C@@H]1[C@@H]2CC[C@]2(C)C(=O)CC[C@@H]12
 : i | 1e-09 | -1.9%&-1.9% | 5.6%&7.5% | i
- NC(=O)C1(N2CCCCC2)CCN(Cc2ccccc2)CC1
 : i | 1.17e-08 | 0.5% | u | i
- Cc1cc(OCc2nn[nH]n2)c2c3c(c(=O)oc2c1)CCCC3
 : i | 3.1e-09 | -0.9% | 6.1% | i
- CNCCc1ccc(O)c(O)c1
 : i | 6.24e-08 | -1.3% | u | i
- CCCCOC(=O)C1=C(N)OC2=C(C(=O)CCC2)[C@]12C(=O)N(C)c1ccccc12
 : i | 1e-09 | -0.9% | 11.6% | i
- C[C@]12N[C@@H](Cc3ccccc31)c1ccccc12
 : i | 3.7e-08&9.3e-09 | -1.3% | 27.5% | i
- O=C1CN=C(c2ccccc2)c2oc3ccc(Br)cc3c2N1
 : i | 2.2e-09 | -2.2% | u | i
- N=c1sc2c(n1Cc1ccccc1)CCCC2
 : i | 3.75e-08 | 1.5% | 9.9% | i
- CC(=NCCO)c1c(O)n(C)c(=O)n(C)c1=O
 : i | 1e-09 | x | x | i

Shown as tab-separated lines: part of the list above
structure	A488 fluor	A647 autofl	AID923	TSHR agonist	Resorufin autofl
CC1(C)C(C(=O)NCc2ccco2)C1(C)C	i	3.4e-09	-0.5%	9.1%	i
C=C(Cl)CCl	x	x	0.8%	6.6%	x
O=C(CCC(=O)N1CCC2(CC1)OCCO2)Nc1nnc(C(F)(F)F)s1	i	2.59e-08	-0.2%	u	i
Cc1nonc1-c1nc(-c2nonc2N)n[nH]1	i	1e-09	0.2%	2.0%	i
NC[C@H](CS(=O)(=O)O)c1ccc(Cl)cc1	x	x	1.5%	-4.3%	x
C[C@]12CCC(=O)C=C1CC[C@@H]1[C@@H]2CC[C@]2(C)C(=O)CC[C@@H]12	i	1e-09	-1.9%&-1.9%	5.6%&7.5%	i
NC(=O)C1(N2CCCCC2)CCN(Cc2ccccc2)CC1	i	1.17e-08	0.5%	u	i
Cc1cc(OCc2nn[nH]n2)c2c3c(c(=O)oc2c1)CCCC3	i	3.1e-09	-0.9%	6.1%	i
CNCCc1ccc(O)c(O)c1	i	6.24e-08	-1.3%	u	i
CCCCOC(=O)C1=C(N)OC2=C(C(=O)CCC2)[C@]12C(=O)N(C)c1ccccc12	i	1e-09	-0.9%	11.6%	i
C[C@]12N[C@@H](Cc3ccccc31)c1ccccc12	i	3.7e-08&9.3e-09	-1.3%	27.5%	i
O=C1CN=C(c2ccccc2)c2oc3ccc(Br)cc3c2N1	i	2.2e-09	-2.2%	u	i
N=c1sc2c(n1Cc1ccccc1)CCCC2	i	3.75e-08	1.5%	9.9%	i
CC(=NCCO)c1c(O)n(C)c(=O)n(C)c1=O	i	1e-09	x	x	i

An excerpt. The share of hits here may be higher or lower than overall.
